# Screening results: PubChem, National Center for Advancing Translational Sciences (NCATS)
# Lassa entry: Lassa virus entry inhibition; Lassa virus pseudotyped entry inhibition, cell-based qHTS; control for the full effect not named in the record; many of its hits are not listed in these tables; Potency, µM (top dose mostly 49.2 µM), without a hit: at the top dose activity change, negative = inhibition, actives largely listed as inhibitors; 4.1% of 18,000 active; active = well fitted inhibition curve with a large enough effect; inconclusive = small, poorly fitted or top-dose-only effect; inactive = no such curve, though single readings can be large or run the other way; tested in HEK293 cells; further: luciferase read-out
# Marburg entry: inhibitors of Marburg virus binding or entry into cells. Marburg virus pseudotype entry/binding inhibition, cell-based; control for the full effect not named in the record; many of its hits are not listed in these tables. Potency, µM (series often up to 49.2 µM), for inactives: at the top dose activity change, negative = inhibition, actives largely listed as inhibitors. 6.5% of 18,000 active; active means well fitted inhibition curve with a large enough effect; inconclusive means small, poorly fitted or top-dose-only effect; inactive means no such curve, though single readings can be large or run the other way; tested in HEK293 cells; further: luciferase read-out
# * hit, by the source's call; ? = inconclusive; nt = no result given; & = joins results of further samples; ! = not active in a repeat; [ ] = another dose, or the depositor's remark. On the % scale 0 is the no-effect control and ±100 the full control effect; potency means the concentration at half of the fitted maximal effect.
1: Cc1cccc(CNc2nc(-c3ccc(C(=O)N(C)C)cc3)nc3ccccc23)c1
2: Cc1ccccc1Nc1oc(-c2ccccc2)nc1-c1cccs1
3: O=C(NN=C1C[C@@H](O)[C@H](O)[C@H]2[C@@H]3C(=O)N(C4CCCCC4)C(=O)[C@@H]3CC[C@H]12)OCc1ccccc1
4: CC(=O)OCCNC(=O)c1cccnc1
5: COc1cc2c3cc1Oc1c(OC)c(OC)cc4c1[C@@H](Cc1ccc(OC(=O)c5ccc([N+](=O)[O-])cc5)c(c1)Oc1ccc(cc1)C[C@@H]3N(C)CC2)N(C)CC4
6: O=C(O)CNCP(=O)(O)O
7: O=C(O)c1nc2cc(Cl)c(Cl)cc2[nH]c1=O
8: COC(=O)C1CCN(Cc2ccc3c(c2)CN(C(=O)c2cc(C)nc(C)n2)CCO3)CC1
entry no.	1	2	3	4	5	6	7	8
Lassa entry	?	-4%	-10%[8.59 µM]	2%	?	4%	9%	-11%
Marburg entry	-25%	-4%	?	5%	0.63µM*	-7%	12%	1%

9: CN(C)CCOC(=O)COc1ccc(Cl)cc1
10: COC(=O)[C@@]1(C=C2c3ccc(F)cc3[C@@H](OC)[C@@H]2C)[C@@H]2C=CC[C@@H]21
11: CC1(C)CN(CCc2ccccc2)C(=O)[C@@H]1CC(=O)Nc1ccccc1
12: O=C(OCc1ccccc1)c1ccccc1
13: COC[C@@H]1CCCN1[C@@H]1C[S+](=O)([O-])N[C@@H]1COCc1ccccc1
14: O=C(c1cnn(-c2nccc(-c3ccco3)n2)c1C1CC1)N1CCCCC1c1cccnc1 (stereo not given)
15: C[C@H]1CN(C2CCCCC2)C(=O)[C@H]1CC(=O)Nc1ccccc1
16: CNc1ccc2oc(C[C@@H]3OC4(CC[C@@H]3C)O[C@H]([C@@H](C)C(=O)c3ccc[nH]3)[C@H](C)C[C@H]4C)nc2c1C(=O)O (stereo not given in full)
entry no.	9	10	11	12	13	14	15	16
Lassa entry	-3%	8%[8.59 µM]	20%	10%&6%	-7%	-27%	-25%	2.8µM*
Marburg entry	-11%	?	4%	36%&24%[activator]	25%	-4%	19%	2.8µM*

17: FC(F)(F)C(F)(F)C(F)(F)C(F)(F)C(F)(F)F
18: O=C1CCC(=O)N1CO
19: CS(=O)(=O)Nc1ccc(N=Cc2c(O)[nH]c3ccccc23)cc1
20: O=C(Nc1cccc(C(=O)Nc2cc(C(=O)Nc3ccc([S+](=O)([O-])[O-])c4cc([S+](=O)([O-])[O-])cc(SOOO)c34)ccc2F)c1)Nc1cccc(C(=O)Nc2cc(C(=O)Nc3ccc([S+](=O)([O-])[O-])c4cc([S+](=O)([O-])[O-])cc([S+](=O)([O-])[O-])c34)ccc2F)c1
21: COc1ccc(C2CC(=O)c3c(O)cc(O)cc3O2)cc1O (stereo not given)
22: CCCCCCCC/C=C\CCCCCCCC(=O)N[C@@H](CO)Cc1ccc(O)cc1
23: CC(C)C1C(=O)N(Cc2cn(CCC3OCCO3)nn2)CCS(=O)(=O)N1Cc1ccc(-c2ccc(Cl)c(Cl)c2)cc1 (stereo not given)
24: CCCCCOc1c(OC)ccc2cc(C(=O)NCc3ccc4c(c3)OCO4)c(=O)[nH]c12
entry no.	17	18	19	20	21	22	23	24
Lassa entry	4%	7%	83%[activator]	-8%	45%[activator]	28µM*	?	?
Marburg entry	8%	27%	131%[activator]	?	35%[activator]	?	?	-4%

# Compound profiles, as listed above.
# COc1ccc(C2CC(=O)c3c(O)cc(O)cc3O2)cc1O (stereo not given) is listed with Lassa entry = 45%[activator]; Marburg entry = 35%[activator]
# O=C1CCC(=O)N1CO is listed with Lassa entry = 7%; Marburg entry = 27%

# (cont.)
25: Cc1cc(C)cc(CN2CCc3nnc(C(NS(C)(=O)=O)C(C)C)n3CC2)c1 (stereo not given)
26: Cc1ccc2nc(SCC(=O)N3CCOc4ccc(CN5C[C@@H](C)O[C@@H](C)C5)cc4C3)[nH]c2c1
27: CC(=O)N1CCN(Cc2cc(=O)oc3ccc4ccccc4c23)CC1
28: COCOCCn1cc(CN2CCS(=O)(=O)N(Cc3ccc(-c4ccccc4)cc3)C(CC(C)C)C2=O)nn1 (stereo not given)
29: CC(C)(C)NC[C@H](O)COc1cccc2[nH]c(C#N)cc12
30: Cc1cccc(CNc2cc(-c3cccc(NS(C)(=O)=O)c3)ncn2)c1
31: Cc1ccc2c(-c3ccnc(Nc4ccc5c(c4)OCCO5)n3)c(-c3ccc(C(F)(F)F)cc3)nn2n1
32: O=c1cc(-c2ccccc2)oc2cc(O)ccc12
entry no.	25	26	27	28	29	30	31	32
Lassa entry	-5%	-13%	24%	?	-3%	-8%	nt	15%
Marburg entry	7%	-11%	11%	?	-13%	-8%	16µM*	12%

# Another view of some results above.
# Values run as follows: Lassa entry | Marburg entry
18	O=C1CCC(=O)N1CO
    7% | 27%
19	CS(=O)(=O)Nc1ccc(N=Cc2c(O)[nH]c3ccccc23)cc1
    83%[activator] | 131%[activator]
20	O=C(Nc1cccc(C(=O)Nc2cc(C(=O)Nc3ccc([S+](=O)([O-])[O-])c4cc([S+](=O)([O-])[O-])cc(SOOO)c34)ccc2F)c1)Nc1cccc(C(=O)Nc2cc(C(=O)Nc3ccc([S+](=O)([O-])[O-])c4cc([S+](=O)([O-])[O-])cc([S+](=O)([O-])[O-])c34)ccc2F)c1
    -8% | ?
21	COc1ccc(C2CC(=O)c3c(O)cc(O)cc3O2)cc1O (stereo not given)
    45%[activator] | 35%[activator]
22	CCCCCCCC/C=C\CCCCCCCC(=O)N[C@@H](CO)Cc1ccc(O)cc1
    28µM* | ?
23	CC(C)C1C(=O)N(Cc2cn(CCC3OCCO3)nn2)CCS(=O)(=O)N1Cc1ccc(-c2ccc(Cl)c(Cl)c2)cc1 (stereo not given)
    ? | ?
24	CCCCCOc1c(OC)ccc2cc(C(=O)NCc3ccc4c(c3)OCO4)c(=O)[nH]c12
    ? | -4%
25	Cc1cc(C)cc(CN2CCc3nnc(C(NS(C)(=O)=O)C(C)C)n3CC2)c1 (stereo not given)
    -5% | 7%
26	Cc1ccc2nc(SCC(=O)N3CCOc4ccc(CN5C[C@@H](C)O[C@@H](C)C5)cc4C3)[nH]c2c1
    -13% | -11%
27	CC(=O)N1CCN(Cc2cc(=O)oc3ccc4ccccc4c23)CC1
    24% | 11%
28	COCOCCn1cc(CN2CCS(=O)(=O)N(Cc3ccc(-c4ccccc4)cc3)C(CC(C)C)C2=O)nn1 (stereo not given)
    ? | ?
29	CC(C)(C)NC[C@H](O)COc1cccc2[nH]c(C#N)cc12
    -3% | -13%

# Additional entries follow.
33: COc1ccccc1N1CCN(CCn2c(=O)[nH]c3c([nH]c4ccccc43)c2=O)CC1
34: O=C(CCCN1CCC(n2c(=S)[nH]c3ccccc32)CC1)c1ccc(F)cc1
35: NS(=O)(=O)c1ccc(Nc2cc(-c3cccc(O)c3)[nH]n2)cc1
36: COC(=O)[C@@H]1CCCN1Cc1ccc2c(c1)CN(Cc1cccc(Cl)c1)CCO2
37: C[N+]1(C)CCc2cc3c(cc2[C@@H]1[C@@H]1C(=O)Oc2c1ccc1c2OCO1)OCO3
38: CO[C@H]1[C@H](NC(=O)c2ccco2)c2ccccc2C12CCN(Cc1ccc3cccc(F)c3n1)CC2
39: O=C(c1ccc(N2CCC(NCCCn3ncc4ccccc43)CC2)cc1)N1CCOCC1
40: COc1ccc2c(c1)C(=O)[C@H](OC(=O)NS(=O)(=O)c1ccc(C)cc1)[C@@H](c1ccc(OC)c(Br)c1)O2
entry no.	33	34	35	36	37	38	39	40
Lassa entry	6%&5%&-14%	-20%	43%[activator]	-19%	-15%&12%	-4%	1%	-6%
Marburg entry	-17%&-18%&-9%	?	79%[activator]	24%	5%&3%	?	?	27%

41: CN(C)Cc1ccccc1-c1nc(NCc2ccccc2)c2ccccc2n1
42: Cc1cccc(CN2[C@H](CO)C=CS2(=O)=O)c1
43: COCC(=O)Nc1cc(C(=O)N2CCN(c3ccc(Cl)cn3)CC2)c2c(c1)nc(C1CCC1)n2C
44: CCCCCCCc1cc2c(cn1)=C(OC)C(C)(OC(C)=O)C(=O)C=2Cl (stereo not given)
45: CNC(=O)[C@H]1O[C@H](n2cnc3c(NCc4cccc(I)c4)ncnc32)[C@@H](O)[C@@H]1O
46: CSc1nnc(CCNC(=O)c2ccc(-c3cccc(F)c3)cc2)n1-c1ccc(F)cc1
47: O=S(=O)(CCc1ccccc1)c1nc2ccccc2s1
48: CCOC(=O)NNc1ccc(N(CC)CC(C)O)nn1 (stereo not given)
entry no.	41	42	43	44	45	46	47	48
Lassa entry	?	16%	-8%	-4%	-4%	-16%	-5%	-12%
Marburg entry	10µM*	14%	?	1%	6%	-16%	2%	12%

49: CCCC[C@H](NC(=O)[C@H](CC(C)C)NC(=O)CNC(=O)[C@@H](NC(=O)[C@H](Cc1ccccc1)NC(=O)[C@H](CO)NC(=O)[C@@H](N)CC(=O)O)C(C)C)C(N)=O
50: CC(=O)Nc1ccc(C(=O)N2CCCC(n3cc(C(=O)NCC(C)C)nn3)C2)cc1 (stereo not given)
51: Cn1ccc2c(-c3ccc(F)nc3)cc3c(c21)C1CCC3O1 (stereo not given)
52: O=[N+]([O-])c1cccc(COc2cccc(CN3CCCCC3)c2)c1
53: Cc1ccc(S(=O)(=O)NC(=O)c2ccc(Br)o2)cc1
54: O=C1CC[C@H](C(=O)O)N1
55: CC[C@H](C)[C@H](N)C(=O)N[C@H](C(=O)N[C@@H](CO)C(=O)N[C@@H](C)C(=O)N[C@H](C(=O)N[C@H](C(=O)NCC(=O)N[C@H](C(=O)N[C@@H](CC(C)C)C(=O)O)[C@@H](C)CC)C(C)C)C(C)C)[C@@H](C)CC
56: CC(C)OC(=O)[C@@H]1CC[C@H](C)[C@@H](CCCC=O)O1
entry no.	49	50	51	52	53	54	55	56
Lassa entry	1%	-1%	8%	nt	4%	-19%	-4%	4%
Marburg entry	1%	-3%	15%	?	-6%	-13%	6%	14%

57: CC(=O)CC(c1ccccc1)c1c(O)c2cc(O)ccc2oc1=O (stereo not given)
58: CCCCCCCCCCCCCCCCOC[C@H](COP(=O)([O-])OCC[N+](C)(C)C)OC(C)=O
59: CC=C(C)[C@H](O)C[Si](C)(C)c1ccccc1
60: O=C1c2ccccc2C(=O)c2ccccc21
61: CCC(=O)N1C2=C(c3ccccc3[C@@H]1CC(=O)Nc1ccc3ccccc3c1)[C@H]1C(=O)N(c3ccccc3)C(=O)[C@@H]1[C@H](C)C2
62: Nc1nc2c(ncn2[C@@H]2O[C@H](COP(=O)(O)OP(=O)(O)OP(=O)(O)O)[C@@H](O)C2O)c(=O)[nH]1 (stereo not given in full)
63: COCCN(CCOC)Cc1cc(=O)oc2ccccc12
64: C=CCNc1ccc2c(c1)OC[C@H](Cc1ccccc1)NS2(=O)=O
entry no.	57	58	59	60	61	62	63	64
Lassa entry	-18%	1%&10%	-27%[8.59 µM]	6%&7%	14%[8.59 µM]	2%	18%	-3%
Marburg entry	-19%	0%&41%	-3%[8.59 µM]	5%&22%	?	4%	18%	27%

65: CC(=O)NCCCS(=O)(=O)O
66: COC1OC2COC(c3ccccc3)OC2C(O)C1O (stereo not given)
67: COc1ccc2c(c1)CCc1cnc(-n3ncc(C(=O)NCc4cccnc4)c3C3CC3)nc1-2
68: CC(C)c1c(C(=O)N(C)Cc2cccc3ncccc23)cnn1-c1nccc(-c2ccccc2F)n1
69: C#CC1(O)CC[C@H]2[C@@H]3CCC4=CCCC[C@@H]4[C@H]3CC[C@@]21C (stereo not given in full)
70: CN1CC(O)C2=CC(=O)C(=O)C=C21 (stereo not given)
71: Cc1nc2cc(NC(=O)[C@@H]3C[C@@H](Sc4ccccn4)CN3Cc3cccc(Cl)c3)ccc2s1
72: COc1ccc(NC(=O)C[C@H]2C(=O)N(c3ccc(OC)cc3)C[C@@H]2CSC)cc1
entry no.	65	66	67	68	69	70	71	72
Lassa entry	-20%	-12%	-3%	?	11%[17.8 µM]	1%	-11%	22%
Marburg entry	9%	8%	-7%	8%	6%[17.8 µM]	8.9µM*	-29%	21%

73: COc1cc(CCN)cc(OC)c1OC
74: CC[C@@H]1OC(=O)[C@H](C)[C@H](O[C@@H]2C[C@](C)(OC)[C@H](O)[C@H](C)O2)[C@H](C)[C@H](O[C@@H]2O[C@@H](C)C[C@@H](N(C)C)[C@@H]2O)[C@](C)(O)C[C@H](C)[C@@H]2N[C@H](COCCOC)O[C@H]([C@@H]2C)[C@]1(C)O
75: O=C1CSC2(CCN(CCCN3c4ccccc4Sc4ccc(Cl)cc43)CC2)N1
76: CN1Cc2c(ccc3c2OCO3)C2C(O)Cc3cc4c(cc3C21)OCO4 (stereo not given)
77: CN1C(=O)C[C@H](C(=O)O)[C@@H]1c1cccnc1
78: CC(C)[C@@]1(NC(=O)[C@@H]2C[C@H]3c4cccc5[nH]cc(c45)C[C@@H]3N(C)C2)O[C@@]2(O)[C@H]3CCCN3C(=O)[C@H](Cc3ccccc3)N2C1=O
entry no.	73	74	75	76	77	78
Lassa entry	-10%[107 µM]	22%[17.8 µM]	?	?	0%	-17%&-2%
Marburg entry	-7%[107 µM]	?	22µM*	?	13%	22µM*!

# The list is partial; the hit share may differ from the screen's.
